Arbovirus anti: antivirals against arbovirus infection, primary screen, cell-based, full library, 10K replicate subset | 200,000 tested, 0.37% active | inhibition, % at 10 µM | AID 1251, 2008 | arbovirus infection cell-based antiviral screen;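 active means inhibition from about 30%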;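 further: bluetongue infection of BSR cells; cell survival read as ATP light after 72 h; 0% = infected wells without compound and 100% = uninfected wells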
YopH PTP inh: YopH tyrosine phosphatase inhibitors, primary screen, biochemical, fluorescence Ex485/Em525. YopH tyrosine phosphatase [Yersinia enterocolitica]. inhibition, %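 (about 10 µM by stock and volumes)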. 140,000 tested, 0.16% active. AID 898, 2007;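 active means inhibition of 50% or more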;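 further: controls were vehicle for no effect and minimum signal wells for full effect; inactives centre near -20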
Mtb growth: M. tuberculosis H37Rv growth inhibitors, H37Rv strain (AID 1626) | M. tuberculosis H37Rv growth inhibition; higher % means a stronger effect | one-dose inhibition, % at 10 µM; IC50 in µM for titrated hits | 220,000 tested, 0.95% active;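 active means confirmed in a dose series; inconclusive means inhibition above 80% but not taken into the dose series; inactive means below 80% or under 30% at every dose of the series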;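 further: bacteria incubated seven days before Alamar blue readout; 0% = bacteria only wells and 100% = bacteria with antibiotic wells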
Mtb bLac sens: beta-lactam sensitization of Mtb H37Rv, H37Rv; 330,000 tested, 0.27% active; M. tuberculosis H37Rv growth with meropenem, percent inhibition; hits of this screen are not shown here; inhibition, % at 25 µM; AID 434955, 2010;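 active means about 74% or more and at least 40 points above the plate without the antibiotic, then above 30% in a dose series; inconclusive means first-round hits that could not be retested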;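 further: growth measured after seven days incubation then overnight dye step; 0% = bacteria only wells and 100% = bacteria with antibiotic; twin plates without the antibiotic show which effects depend on it; some results filed as inactive read as strong as hits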
RecA splice inh: Mtb RecA intein splicing inhibitors, primary screen, biochemical, fluorescence, HTS | Protein RecA (Mycobacterium tuberculosis (strain ATCC 25618 / H37Rv)), P9WHJ3 | cell-free RecA intein splicing | inhibition, %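 (about 9 µM by stock and volumes)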 | 290,000 tested, 0.75% active | AID 2221, 2009; in the data active means inhibition above about 30%; inconclusive means no clear call, values can overlap the other calls;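 further: 0% = vehicle wells and 100% = reference inhibitor control wells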
Target sequence (P9WHJ3 whole entry, looked up, canonical isoform): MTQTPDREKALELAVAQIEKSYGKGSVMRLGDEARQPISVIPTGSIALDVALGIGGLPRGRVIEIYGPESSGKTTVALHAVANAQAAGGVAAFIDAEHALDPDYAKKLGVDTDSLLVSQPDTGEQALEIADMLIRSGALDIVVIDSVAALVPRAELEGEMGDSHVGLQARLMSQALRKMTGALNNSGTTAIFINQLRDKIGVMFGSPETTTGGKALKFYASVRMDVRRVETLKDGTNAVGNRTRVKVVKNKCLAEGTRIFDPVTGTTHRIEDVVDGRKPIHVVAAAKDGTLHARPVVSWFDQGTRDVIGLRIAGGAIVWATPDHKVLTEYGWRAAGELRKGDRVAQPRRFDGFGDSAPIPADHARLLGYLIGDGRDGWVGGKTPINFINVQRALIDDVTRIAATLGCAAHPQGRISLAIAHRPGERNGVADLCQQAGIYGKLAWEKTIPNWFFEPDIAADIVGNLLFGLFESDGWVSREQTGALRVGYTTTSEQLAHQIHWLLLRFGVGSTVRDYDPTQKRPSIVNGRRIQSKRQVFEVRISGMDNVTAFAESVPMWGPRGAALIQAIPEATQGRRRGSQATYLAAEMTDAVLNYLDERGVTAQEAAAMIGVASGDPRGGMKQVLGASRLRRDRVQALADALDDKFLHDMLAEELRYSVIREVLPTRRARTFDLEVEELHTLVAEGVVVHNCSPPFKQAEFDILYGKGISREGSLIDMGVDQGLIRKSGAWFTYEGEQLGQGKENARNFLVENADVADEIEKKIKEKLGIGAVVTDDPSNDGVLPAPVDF
Arbovirus anti repeat: also measured in Arbovirus anti; calls as there; inhibition, %; measured here: 10K subset replicate screen; many hits read low in the repeat;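 first of two repeat runs on a subset; 0% = infected and 100% = uninfected wells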
An asterisk follows results filed as active; ? = inconclusive; nt = not tested or not shown. Not all compounds are listed. The share of hits here may be higher or lower than overall.

SMILES	Arbovirus anti	YopH PTP inh	Mtb growth	Mtb bLac sens	RecA splice inh	others
Cc1nnc(NC(=O)c2nc(S(=O)(=O)Cc3ccccc3)ncc2Cl)s1	nt	nt	nt	-2	56*
COc1ccc2oc(=O)c(C(=O)NC(C)c3ccccc3)cc2c1 (stereo not given)	nt	nt	nt	-7	-45
CCC(Oc1ccccc1)C(=O)Nc1ccccc1OC (stereo not given)	-2	2	-3%	15	3.5	Arbovirus anti repeat=-9
Cc1ccnc(NS(=O)(=O)c2ccc(NC(=O)C3CC=CCC3C(=O)O)cc2)n1 (stereo not given)	1	nt	-4%	2	-0.4
COc1ccc(NC(=O)CCCn2cnc3ccccc3c2=O)c(OC)c1	nt	nt	nt	3	2.3
Cc1c(C#N)c(NC(=O)CCl)n(Cc2cccs2)c1C	-11	nt	3%	83	65*
CC1Cc2cc(S(=O)(=O)N3CCCCC3)ccc2N1C(=O)C1CCC1 (stereo not given)	nt	nt	nt	8	3.6
CC1(C)Cc2c(c(N3CCCC3)nc3sc(C(=O)Nc4ccccc4)c(N)c23)CO1	nt	nt	nt	5	2.8
COc1cc(NS(C)(=O)=O)c(OC)cc1NC(=O)c1cccc(F)c1	8	-45	-7%	-4	-0.5
O=C(COC(=O)CCc1nc2ccccc2c(=O)[nH]1)Nc1c(Cl)cccc1C(F)(F)F	nt	nt	nt	-12	-7.5
COc1ccccc1CNC(=O)CNCCc1ccc(OC)c(OC)c1	nt	nt	nt	9	-0.1
Cc1ccc(NCc2nnc(SCC(=O)NNC(=O)Cc3ccccc3)n2C)cc1	nt	nt	-6%	-4	-1.9
Cc1nnc(NC(=O)CSc2nnc(CNC(=O)C34CC5CC(CC(C5)C3)C4)n2C2CCCCC2)s1	10	-22	-2%	2	-2.6
CCC(CC)C(=O)Nc1cc(OC)c(OC)cc1C(=O)O	-4	-60	-9%	4	0.6
O=C(O)CC1S/C(=N/N=C/c2ccc(Br)cc2)N(c2ccccc2)C1=O (stereo not given)	4	nt	6%	nt	-1.8
Cc1cccc(OCc2nc(-c3nonc3N)no2)c1C	0	-28	-3%	-3	1.8
CCOc1ccc(OCCOC(=O)CN2C(=O)NC3(CCCC3)C2=O)cc1	nt	nt	nt	-4	-2.4
CC1(c2ccccc2)NC(=O)N(CC(=O)Nc2ccc(C(N)=O)cc2)C1=O (stereo not given)	nt	nt	nt	1	-0.9
CN(CC(=O)Nc1ccc(F)c(F)c1F)C(=O)c1cc(-c2ccncc2)nc2ccccc12	nt	nt	nt	-6	-6.0
CCOc1ccc(C(C)=O)cc1CSc1nc2nc(C)cc(C)n2n1	3	nt	3%	10	-2.7
O=C(OCn1nnc2ccccc2c1=O)c1ccc(N2CCOCC2)c([N+](=O)[O-])c1	5	-30	70%	100	-1.2
Cc1sc2nc(CSc3cccc(C(F)(F)F)c3)[nH]c(=O)c2c1C	8	-53	14%	-2	-3.4
CC(OC(=O)C1=Cc2ccccc2OC1)C(=O)NC(C)(C)C (stereo not given)	9	nt	18%	4	-1.7
COc1ccc(NC(=O)CN2CCC(C)CC2)c([N+](=O)[O-])c1	-1	-17	14%	4	-0.4
NC(=NCCc1ccc(Cl)cc1)NS(=O)(=O)c1ccccc1	nt	nt	nt	-1	3.7
Cn1cccc1/C=N\NC(=O)c1cncc(Br)c1	nt	nt	nt	33	-1.7
CCCCCCCCN1[C@@H](CC(=O)OCC)c2cc(C(F)(F)F)ccc2S1(=O)=O	nt	nt	5%	6	5.8
CC(=O)N1c2ccccc2CCc2ccc(N)cc21	nt	nt	nt	-1	-0.4
O=C(Nc1ccc2snnc2c1)N1CCN(c2ccccc2)CC1	-11	-13	-1%	-5	0.9	Arbovirus anti repeat=1
COc1ccc(NC(=O)Nc2ccccc2C(N)=O)cc1OC	7	4	-1%	-3	-1.3
O=C(Nc1ccccc1)/C(=C/c1cccnc1)NC(=O)c1ccco1	2	-50	-18%	-1	3.5
COc1cccc(CNc2nc3ccccc3n2CCN2CCCCC2)c1OC	21	20	0%	-8	nt
CN(C)c1ccc(C(=S)N2CCN(Cc3ccccc3)CC2)cc1	-13	nt	3%	-9	2.2
CCc1ccc(CN(C)C(=O)CC2C(=O)NCCN2Cc2ccoc2)cc1 (stereo not given)	-1	nt	1%	-5	-2.5
Cc1cc(C(=O)OCC(=O)NCc2ccco2)c(C)n1-c1ccccc1	-11	-31	1%	2	2.3
Cc1ccc(S(=O)(=O)CC(=O)N2CCN(c3cccc(C(F)(F)F)c3)CC2)cc1	nt	nt	nt	-3	-0.7

Reprinted from the part before: 3 entries, then new ones.
SMILES	Arbovirus anti	YopH PTP inh	Mtb growth	Mtb bLac sens	RecA splice inh	others
CCc1ccc(CN(C)C(=O)CC2C(=O)NCCN2Cc2ccoc2)cc1 (stereo not given)	-1	nt	1%	-5	-2.5
Cc1cc(C(=O)OCC(=O)NCc2ccco2)c(C)n1-c1ccccc1	-11	-31	1%	2	2.3
Cc1ccc(S(=O)(=O)CC(=O)N2CCN(c3cccc(C(F)(F)F)c3)CC2)cc1	nt	nt	nt	-3	-0.7
Cc1ccc(NC(=O)c2cccc(F)c2)cc1S(=O)(=O)N1CCCCCC1	4	nt	10%	0	0.8
COCCN(C(=O)COC(=O)/C=C/c1cccs1)c1c(N)n(Cc2ccccc2)c(=O)[nH]c1=O	nt	nt	nt	-1	-0.3
Cc1ccc2nc3c(cc(S(=O)(=O)c4ccccc4)c(=N)n3Cc3ccco3)c(=O)n2c1	-1	nt	2%	11	-90
Cc1cccc(NC2=CC(=O)OC(C)C2)c1 (stereo not given)	16	-9	2%	-9	1.3
COC(=O)[C@@]1(Cc2ccc(F)cc2)[C@@H]2[C@@H](CC(=O)[C@H]2CC(=O)C(=O)N(C)C)CN1C(=O)c1ccccc1	-4	-6	-13%	-6	nt
COc1ccc(C)cc1NC(=S)NC(C)c1ccc(OC)c(OC)c1 (stereo not given)	7	nt	1%	9	7.6
Cc1nn(C)cc1S(=O)(=O)Nc1ccc(C(F)(F)F)cc1	nt	nt	nt	-2	-0.5
C=C(C)COc1ccc(-c2[nH]ncc2-c2ccc(Br)cc2)c(O)c1	-31	-31	43%	50	5.2
Fc1ccccc1N1CCN(Cc2cnc(Cl)s2)CC1	0	nt	2%	0	1.3
O=[N+]([O-])c1cc(CS(=O)(=O)Oc2ccc(Cl)cc2)c(O)c([N+](=O)[O-])c1	nt	nt	nt	-9	0.1
COc1ccccc1N1CC(C(=O)Nc2nnc(SCC(=O)NC(C)C)s2)CC1=O (stereo not given)	nt	nt	nt	1	-1.4
CCn1c(C(C)NC(=O)c2cccs2)n[nH]c1=S (stereo not given)	-6	-4	1%	-5	0.8
CCOC(=O)N1CCC(=NNC(=O)COc2ccc(C#N)cc2)CC1	-1	-11	6%	-3	1.3
CCOc1ccc(S(=O)(=O)Nc2cccc(OC)c2)cc1	-13	-15	2%	?	4.7
O=C(Nc1ccc(S(=O)(=O)NCc2ccccc2)cc1)C1CCCCC1	nt	nt	nt	9	1.9
CN(C)S(=O)(=O)N1CCN(S(=O)(=O)N(C)C)CC1	3	-19	4%	-4	-2.6
O=C(NCCN1C(=O)C2C3C=CC(C3)C2C1=O)N1CCCCC1 (stereo not given)	-1	-29	-9%	6	-0.2	Arbovirus anti repeat=2
COC(=O)[C@@H](c1ccccc1)N(C)S(=O)(=O)c1cccc(S(=O)(=O)N(C)[C@@H](C(=O)OC)c2ccccc2)c1	nt	nt	nt	2	2.4
CC(C)NCC(=O)Nc1c2c(nc3ccccc13)CCC2	nt	nt	-5%	-5	nt
COc1ccc(OC)c(C(O)c2coc3ccc(O)c(CN4CCOCC4)c23)c1 (stereo not given)	0	20	-2%	-1	1.4
CC1=CC(C)C(C(=O)O)C(C(=O)O)C1 (stereo not given)	4	-41	1%	-5	-1.2
CC1=Nc2ccccc2/C1=C/c1c(N)n2c(S(=O)(=O)CC(C)C)nsc2nc1=O	6	nt	6%	nt	9.4
CCOC(=O)c1c(NC(=O)CSc2nc3ccccc3[nH]2)sc2c1CC(C)(C)NC2(C)C	nt	nt	nt	20	3.7
CC12CC3CC(C)(C1)CC(C(=O)NC1=NCCS1)(C3)C2	5	-14	0%	79	0.6
CN(C)S(=O)(=O)c1cccc(NC(=O)COC(=O)CNC(=O)c2ccccc2F)c1	nt	nt	-5%	-1	-1.2
COC(=O)c1scc(S(C)(=O)=O)c1-n1cccc1	nt	nt	-10%	5	0.5
CC1(C)CC(NS(=O)(=O)c2ccccc2)CC(C)(C)N1	1	-37	0%	-17	-5.9
Cc1noc(/C=C/N(C)C)c1S(=O)(=O)N(C)Cc1ccc(F)cc1	nt	nt	nt	3	-1.0
COc1ccccc1CNC(=O)C1CCCN(S(=O)(=O)c2cnc[nH]2)C1 (stereo not given)	-3	-11	-4%	5	nt
Cc1nn(-c2ccccc2)c(C)c1N	12	nt	6%	-8	1.6
Cc1noc(C)c1S(=O)(=O)N(CC(=O)NCc1ccc(F)cc1)c1ccc(C(C)C)cc1	nt	nt	nt	-6	0.0
COc1cccc(CNC(=O)C2CCCN(c3cnccn3)C2)c1 (stereo not given)	nt	nt	nt	4	1.1
Cn1c(C(=O)NCc2ccc3c(c2)OCO3)cc2sccc21	-2	-55	2%	14	1.6
CN(C)Cc1ccccc1Sc1ccccc1Br	-4	-19	1%	1	-0.4
NC(N)=NS(=O)(=O)c1ccc(NC(=S)Nc2ccc(F)cc2)cc1	nt	nt	nt	-1	0.7
Cn1nnnc1SCC(=O)Nc1cccc(S(=O)(=O)N2CCCC2)c1	7	nt	-3%	3	-0.6
Cc1ccc(C)c(CN2C(=O)CSc3ccc(C(=O)NCC(C)CN4CCC(C)CC4)cc32)c1 (stereo not given)	nt	nt	nt	-3	-5.0
CC(C)CCN(C)C1CCN(S(=O)(=O)c2ccc(F)cc2)CC1	-13	-10	2%	7	-2.7	Arbovirus anti repeat=-11
Cc1ccccc1NC(=O)CN1C(=O)S/C(=C\c2ccc(-c3cc(C(=O)O)ccc3C)o2)C1=O	6	nt	-2%	nt	-21
C=CCN1C(=O)N(c2ccccc2)C(=O)C1CC(=O)Nc1ccc(OC)cc1 (stereo not given)	nt	nt	nt	4	1.5
COc1ccc(/C=C/c2c([N+](=O)[O-])c(=O)n(C)c(=O)n2C)c(OC)c1OC	6	nt	-6%	-7	-1.1
Cn1c(NCc2ccc(Cl)cc2)nc2ccccc21	10	nt	5%	4	-1.4
COC(=O)C1C2C=CC3(CN(C4CCCC4)C(=O)C13)O2 (stereo not given)	6	-45	-4%	-7	0.7
COc1cc2c(cc1OC)C(C)N(C(=O)c1nccnc1C(=O)O)CC2 (stereo not given)	nt	nt	-9%	-8	-2.5
CCOC(=O)C1=C(C)N2C(=C(C#N)[C@@H]1c1ccc(C(=O)OC)cc1)SC[C@@]2(O)C(C)(C)C	-22	-34	-14%	-7	3.7
COC(=O)c1ccc2c(=O)n(NC(=O)C(c3ccccc3)c3ccccc3)c(=S)[nH]c2c1	-2	-14	3%	-3	-0.1
CCOC(=O)N1CCC(c2cc(=O)n3[nH]c(-c4ccccc4)cc3n2)CC1	-4	-9	4%	-2	-1.5	Arbovirus anti repeat=-1
Cc1cc(C)nc(SCC(=O)Nc2ccc(N3CCOCC3)c(Cl)c2)n1	8	25	8%	90	nt
O=C1CCN(C(=O)/C=C/c2ccccc2)c2ccccc21	-10	nt	2%	4	nt
COc1cc(OC)cc(C(=O)NCc2cc(C)nc3ccccc23)c1	-2	nt	2%	0	-0.5
O=C(NCCCN1CCCC1=O)c1ccc(CNS(=O)(=O)c2ccc(F)cc2)cc1	3	-23	-4%	0	-1.8
Cc1cc(C)n2ncnc2n1	-5	-8	-6%	-19	0.4
N=C(CC1CC(=O)NC(=O)C1)C1=C(O)CCCC1=O	-14	-13	-10%	0	-0.3
Cc1cc(OC(=O)N(C)C)nc(-c2ccc(C)c(Cl)c2)n1	nt	nt	4%	0	1.4
COc1ccc(Cn2c(O)c(C=Nc3c(C)n(C)n(-c4ccccc4)c3=O)c(=O)[nH]c2=O)cc1	4	-34	-1%	-4	nt
Cc1cc(C)n(C(=O)CNC(=O)C(c2ccccc2)c2ccccc2)n1	0	1	-3%	-6	-0.9
CC(/C=N/N1CCN(Cc2ccccc2)CC1)=C\c1ccccc1	8	nt	2%	0	2.9
CC1CC(C)CN(CCOc2ccccc2-c2ccccc2)C1 (stereo not given)	11	-11	5%	1	2.2
CC(=O)C(Cc1cccc(F)c1)(Cc1cccc(F)c1)C(C)=O	6	nt	5%	-1	5.2
